High-throughput results: PubChem BioAssay, National Center for Advancing Translational Sciences (NCATS)
PINK1 expr mod = PINK1 expression modulation | PINK1 immunofluorescence, high-content cytometry, 24 h | Potency, µM (titrated, usually from 76.6 µM), without a hit: top-dose activation (PINK1 increase), hits mostly activators | hit rate 0.2% among 410,000; active = well fitted activation curve with a large enough effect; inconclusive = small, poorly fitted or top-dose-only effect; inactive = flat fitted curve, though single readings scatter; cell line not stated here;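 note: potency is the fitted concentration of half-maximal effect; % of control where 0% means no effect; nearly all actives have a fitted effect of over 65% in size; a mitochondrial uncoupler was the plate control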
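PINK1 protein level read as immunofluorescence by microplate cytometer in a fixed, stained stable cell line after 24 h exposure to five compound concentrations, with CCCP as control.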
Six1-Eya2 inh = inhibitors of human Six1/Eya2 interaction. AlphaScreen GST-Six1/His-Eya2 binding, biochemical; active compounds read low; control for the full effect not named in the record. Q15475+O00167. activity change, % (concentration not given with the values). hit rate 0.56% among 360,000; in the data active = activity change below about -65%; inconclusive = about -30% to -65%; inactive = above about -30%; note: % is set by controls: 0 for no effect and ±100 for the full control effect
Target sequence (O00167 whole entry, looked up): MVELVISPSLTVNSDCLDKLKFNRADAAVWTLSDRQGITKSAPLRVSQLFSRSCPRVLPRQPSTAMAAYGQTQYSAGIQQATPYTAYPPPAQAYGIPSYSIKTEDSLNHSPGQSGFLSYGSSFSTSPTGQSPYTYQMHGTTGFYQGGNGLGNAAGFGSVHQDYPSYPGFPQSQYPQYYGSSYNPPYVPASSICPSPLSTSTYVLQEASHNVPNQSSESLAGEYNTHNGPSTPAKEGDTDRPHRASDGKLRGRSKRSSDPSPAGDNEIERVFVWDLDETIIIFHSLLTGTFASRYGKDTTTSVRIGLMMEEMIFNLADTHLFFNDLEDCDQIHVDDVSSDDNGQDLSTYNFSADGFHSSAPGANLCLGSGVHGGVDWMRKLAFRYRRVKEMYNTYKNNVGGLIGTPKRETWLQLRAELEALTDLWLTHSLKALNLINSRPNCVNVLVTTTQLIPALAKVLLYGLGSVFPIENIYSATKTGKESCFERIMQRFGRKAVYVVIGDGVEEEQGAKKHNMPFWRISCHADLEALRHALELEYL
Target sequence (Q15475 whole entry, looked up): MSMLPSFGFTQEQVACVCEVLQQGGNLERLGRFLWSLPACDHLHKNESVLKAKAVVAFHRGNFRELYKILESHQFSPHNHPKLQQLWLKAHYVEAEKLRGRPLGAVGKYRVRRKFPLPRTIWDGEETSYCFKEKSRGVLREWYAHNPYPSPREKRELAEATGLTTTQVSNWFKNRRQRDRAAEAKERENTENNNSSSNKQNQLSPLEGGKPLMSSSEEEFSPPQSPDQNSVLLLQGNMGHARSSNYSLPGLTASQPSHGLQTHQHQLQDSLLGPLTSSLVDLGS
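Compounds are tested against tagged Six1 and Eya2 proteins bridged by glutathione donor and nickel acceptor beads; after a one-hour incubation at 37 °C without light, AlphaScreen emission is recorded.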
TRPML1 inh = inhibitors of human TRPML1 channel; Q9GZU1; activity change, negative = inhibition, % (concentration not given with the values); hit rate 0.02% among 390,000; TRPML1-inducible cells, Ca2+ dye fluorescence, FDSS; active compounds read low; inhibition of EC80 agonist-evoked calcium signal; AID 624415; in the data active means activity change below about -50%; inconclusive means about -30% to -50%; inactive means above about -30%;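 note: stimulus is agonist 54-4 at its EC80 concentration; % is set by controls: 0 for no effect and ±100 for the full control effect; the text of the record puts the active cut at -80%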
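Calcium fluorescence in TRPML1-DL cells induced overnight with Tet: a 110 s read after compound pin addition, then a 110 s antagonist read after challenge with 54-4 at 4 uM final (EC80).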
D2 ag = human D2 receptor agonism in beta-arrestin assay | P14416 | DiscoveRx PathHunter D2 beta-arrestin, luminescence, 90 min; 100% = 57 uM dopamine signal | activation, % (no concentration beside the values) | hit rate 0.084% among 360,000 | AID 624465; in the data active = activation above about 40%; inconclusive = about 15% to 40%; inactive = below about 15%; note: compound concentration not given in the record; the text of the record calls up to 30% inactive
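DiscoveRx PathHunter D2 beta-arrestin cells (2,100/well) attached overnight, then compound-stimulated 90 min at 37 C in HBSS/10 mM HEPES/0.1% Tween-20 buffer; beta-galactosidase complementation read by luminescence after 1 h at ambient temperature. Dopamine 57 uM final (EC100) as control.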
D2 PAM = positive allosteric modulators of human D2 dopamine receptor; potentiation, % (test concentration not listed); hit rate 0.23% among 360,000; DiscoveRx D2 beta-arrestin cells, luminescence, 90 min; 100% = 57 uM dopamine signal; P14416; active = potentiation of 50% or more; inconclusive = 30% to 50%; inactive = 30% or less;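 note: compound concentration not given in the record; tested on top of an EC20 dose of dopamine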
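D2 cells co-treated with compound plus 50 nM dopamine (EC20) for 90 min at 37 deg C to detect potentiation. Beta-arrestin recruitment was read as enzyme-fragment luminescence after 1 h at ambient temperature. Full response was set by 57 uM dopamine.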
TRPML1 ag = agonists of human TRPML1 channel | Q9GZU1 | TRPML1-expressing cells, Ca2+ dye fluorescence, FDSS; host cell line not named in the record; reference of the full effect not given here | activation, % (concentration not given with the values) | hit rate 0.12% among 410,000 | AID 624414; in the data active = activation above about 50%; inconclusive = about 30% to 50%; inactive = below about 30%; note: 0% is about no effect; the text of the record puts the active cut at 80%
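In this qHTS format, compounds were pin-transferred onto Ca8-dye-loaded TRPML1-DL cells induced with Tet overnight, and intracellular Ca2+ fluorescence was recorded kinetically for 110 s after a 10 s baseline. A subsequent 4uM final 54-4 (EC80) addition followed by a second 110 s read served as the antagonist phase.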
* marks the source's active call; other numbers are inactive results; ? = inconclusive; nt = no result given; & = joins results of further samples; [ ] = dose if it differs, or a comment.

Every second line gives: PINK1 expr mod	Six1-Eya2 inh	TRPML1 inh	D2 ag	D2 PAM	TRPML1 ag
CCOC(=O)c1c(NC(=O)COC(=O)CCOc2cc(C)ccc2C)sc(C(=O)N(C)C)c1C
→ 1.0%	-15	15	-2.0	-11	4.7
COc1ccc(C(=O)CC(Nc2ccc([N+](=O)[O-])cc2)c2ccc(Cl)cc2)cc1 (stereo not given)
→ -4.9%[38.3 µM]	-23	1	-3.4	-8	0.4
COc1cc2c(cc1NC(=O)CSc1nc3cc(Cl)ccc3s1)oc1ccccc12
→ ?	4	-7	-0.8	-1	-0.2
O=[N+]([O-])c1ccc(S(=O)(=O)Nc2nnc(C3CCCCC3)s2)cc1
→ -2.0%	-1	34	1.3	19	-0.1
CCCCNc1ccc(C(F)(F)F)cc1S(=O)(=O)NCCc1ccc(F)cc1
→ 1.5%	15	7	0.6	nt	-0.1
CCN=c1scc(C)n1/N=C/c1ccsc1
→ 0.2%	-26	16	-3.9	-10	-0.4
COc1ccc(-c2[nH]ncc2/C=N/NC(=O)c2cc(Br)ccc2O)c(OC)c1
→ -0.7%	?	9	-6.0	-13	0.4
COc1ccc(N2CCN(C(=O)CSc3nc(-c4ccccc4)no3)CC2)cc1
→ -0.1%	nt	9	nt	nt	1.5
S=C(Nc1cc(Cl)ccc1Cl)Nn1cnnc1
→ -1.6%	3	-6	-3.5	-8	0.0
CC1CCCCN1S(=O)(=O)c1ccc(C(=O)Nc2nnc(C3CC3)o2)cc1 (stereo not given)
→ 1.2%	-15	0	0.6	-1	3.1
O=C(C[n+]1cc2ccccc2c2ccccc21)c1ccccc1
→ 16%	-4	-11	-3.8	-12	-0.5
COc1ccccc1N1CCN(C(=O)/C=C/c2cccs2)CC1
→ -1.2%	-2	33	-0.7	18	1.1
COc1cc(Oc2ccccc2)nc(N)n1
→ 2.2%	1	-3	-0.6	-20	-0.6
Cc1ccc(-c2nnc(N3CCN(CCO)CC3)c3ccccc23)cc1
→ 4.7%	-1	-4	-8.1	-1	-1.1
Cc1ccc2nc(-c3ccccn3)cc(C(=O)Nc3ccc4c(c3)OCO4)c2c1
→ 19%	-2	-7	-0.6	0	-0.8
CCCCN1CC[C@H]2C=CC[C@@H](C(=O)Nc3ccc(Cl)cc3Cl)[C@H]2C1=O
→ -0.7%	-1	-17	-0.6	-11	2.8&-0.8
CC(=O)CCc1ccc(OCC(O)CNCCOc2ccc(C)cc2)cc1 (stereo not given)
→ 0.5%	2	49	5.9	-7	0.2
O=C(Nc1ncc(Br)s1)C1CCCN1S(=O)(=O)c1cccc2cccnc12 (stereo not given)
→ 7.5%	0	16	-5.1	-14	0.3
Cc1cc(C)cc(NC(=O)CCCc2nc(-c3ccccc3Cl)no2)c1
→ -1.1%	nt	1	nt	nt	1.5
Cc1cccc(OCC(=O)N2CCN(C(=O)Cc3ccccc3)CC2)c1
→ 0.4%	4	23	2.4	5	-0.5
CC(C)(C)n1nc2c(c1NC(=O)COc1ccc3ccccc3c1)CS(=O)(=O)C2
→ 18%[38.3 µM]	0	15	1.0	5	-0.1
COc1cccc(-n2nnc3c(=O)n(CC(=O)NC4CCCC4)cnc32)c1
→ 10.0%[38.3 µM]	2	8	2.1	6	-0.5
Cc1ccc(N(CC(=O)NCc2ccc3c(c2)OCO3)C(=O)CCC(=O)Nc2ccccn2)cc1
→ 1.0%	1	4	1.0	7	0.6
c1ccc2sc(NC3=NCN(Cc4ccc5c(c4)OCO5)CN3)nc2c1
→ -4.2%[38.3 µM]	-3	2	2.4	-2	0.4
COc1ccc(CCC(=O)N2CCc3ccccc32)cc1
→ -0.7%	2	19	0.2	-4	1.3
CCc1ccc(N=c2c([N+](=O)[O-])nn(-c3ccccc3)n2O)cc1
→ -1.9%[38.3 µM]	?	-1	13	90*	1.3
COc1cc(C(=O)NCC(=O)NCCCSc2ccccc2)cc(OC)c1OC
→ 1.3%	2	-13	0.0	0	1.3
COc1ccc(C(c2sc3nc(C)nn3c2O)N2CCN(Cc3ccccc3)CC2)cc1OC (stereo not given)
→ -1.5%	2	17	0.0	-11	0.2
COc1ccc(C2C(C#N)=C(N)N(N(C)C)C3=C2C(=O)CC(C)(C)C3)cc1 (stereo not given)
→ 0.1%	2	29	9.3	-15	0.5
O=C(Nc1ccc(S(=O)(=O)N2CCCCC2)cc1)c1cnccn1
→ 9.0%	4	-1	-2.0	-3	-0.4
Cc1cnc(C(=O)OC(C(=O)c2c[nH]c3ccccc23)c2ccccc2)cn1 (stereo not given)
→ 1.3%	-4	32	-0.7	11	-0.1
CCCC(C)NC(=O)C1CCN(S(=O)(=O)c2ccccc2)CC1 (stereo not given)
→ 3.3%[38.3 µM]	7	-2	-2.5	5	0.2
COC(=O)c1sc(=S)n(-c2cc(F)ccc2F)c1N
→ 8.1%[38.3 µM]	-9	14	-3.6	-13	-0.2
Cc1ccc2cc(CN(CCCO)S(=O)(=O)c3cccc4nsnc34)c(=O)[nH]c2c1C
→ ?	14	-5	-0.1	-7	0.0
C[n+]1c(-c2ccccc2)cc2c(=Cc3ccccc3)c3ccccc3n21
→ ?	?	-12	11	5	0.1
COc1ccc(CC(=O)NNc2ncnc3c2cnn3C)cc1
→ -0.3%	5	-1	-3.6	-5	-0.2
CCN1CCN(C(=O)CSc2cc(=O)n(C)c3ccccc23)CC1
→ -0.4%	13	-17	-4.8	-19	1.6
Cc1cccc(N2CCN(C(=O)/C=C/c3cccs3)CC2C)c1 (stereo not given)
→ 0.8%	-5	-15	1.1	5	0.6
CCCC(=O)Nc1ccc(Cl)c(NC(=O)c2ccc(Br)o2)c1
→ -2.4%[38.3 µM]	-4	9	-1.5	-13	1.7
COc1ccc(Cl)cc1NC(=O)CSc1nnc(Cc2cccn2C)n1-c1ccc(F)cc1
→ 0.1%	-12	-15	-1.5	-13	0.0
COc1ccc(CCNC(=O)CN(c2ccccc2)S(C)(=O)=O)cc1OC
→ -3.9%	2	-4	0.7	-2	-0.3
CCn1c(C)nc2cc(C(=O)NNC(=O)Nc3cccc(Cl)c3)ccc21
→ -0.2%	-2	-1	0.0	-3	0.0
COc1ccc(CCNC(=O)c2cnn(-c3ccc(C)c(C)c3)c2NC(=O)c2ccco2)cc1OC
→ ?	4	15	-4.1	-19	0.7
CCc1ccc(OC)c(S(=O)(=O)N2CCN(C(=O)c3ccco3)CC2)c1
→ -0.3%	2	-7	-2.1	-3	1.3
CC(Nc1n[nH]c(=O)[nH]c1=O)C(=O)N/N=C/c1cccs1 (stereo not given)
→ -1.2%	16	1	-5.0	-23	0.2
Cc1cnc(C(=O)OCC(=O)NC(C)c2ccccc2)cn1 (stereo not given)
→ 1.0%	-5	24	2.7	-1	2.0
COc1ccccc1C(=O)C1CCCN(Cc2cccc3nccnc23)C1 (stereo not given)
→ -0.4%	-5	15	0.5	-7	-0.7
COc1ccccc1/C=C\C(=O)NCC(=O)N/N=C(\C)Cc1ccccc1
→ -1.7%	-17	-13	-4.5	-13	0.0
CCOC(=O)c1[nH]c(C)c(C(=O)N2CCOCC2)c1C
→ 0.7%	-1	-5	-0.4	-1	-0.1
COc1ccc(CN2C(=O)c3ccccc3C2=O)cc1C(=O)O
→ -0.3%	2	19	-5.6	-5	1.4
COc1ccc(N2C(=O)NC(=O)C2=O)cc1
→ 1.7%	12	-26	-3.1	-5	-0.5
CCN1C(=O)c2ccccc2S(=O)c2ccc(C(=O)NCc3ccccc3OC)cc21 (stereo not given)
→ 1.5%	nt	-11	nt	nt	-0.8
CC(=O)N1CCc2cc(NC(=O)C3(C)CCN3Cc3ccc(C(C)C)cc3)ccc21 (stereo not given)
→ 0.7%	-6	nt	4.9	-7	-0.5
O=C(NCc1ccccc1)C(=O)Nc1cccc(C(=O)O)c1
→ 1.0%	7	18	-0.3	-7	0.0
CN(C)c1cccc(NC(=O)c2ccc(-c3ccc(F)c(F)c3)c3ccoc23)c1
→ 3.5%	-7	nt	-5.0	-7	-0.4
O=C1CC(N2CCC(c3nc4ccccc4o3)CC2)C(=O)N1c1ccc(F)cc1 (stereo not given)
→ 0.1%	14	37	5.2	-8	0.6
NC(=O)c1ccccc1N/C=C/C(=O)c1ccc(Cl)cc1
→ 1.2%	7	-15	-0.2	-5	-0.5
O=C(Nc1cccnc1N1CCOCC1)c1ccco1
→ -0.4%	1	-17	-2.5	-11	0.6
CN1C2C=C3C(C#N)=C(N)C(C#N)(C#N)C(c4ccc(Br)cc4)C3C1CC2 (stereo not given)
→ 8.9%	-11	5	-7.3	-19	0.1
COc1ccc(NC(=O)C(=O)NCC2CCCN2S(=O)(=O)c2cccs2)cc1 (stereo not given)
→ 1.9%	7	13	-1.0	-3	1.3

Complete entries, quoted from the list:
`COc1ccc(N2C(=O)NC(=O)C2=O)cc1` as listed: PINK1 expr mod: 1.7%; Six1-Eya2 inh: 12; TRPML1 inh: -26; D2 ag: -3.1; D2 PAM: -5; TRPML1 ag: -0.5
`COc1ccc(CN2C(=O)c3ccccc3C2=O)cc1C(=O)O` as listed: PINK1 expr mod: -0.3%; Six1-Eya2 inh: 2; TRPML1 inh: 19; D2 ag: -5.6; D2 PAM: -5; TRPML1 ag: 1.4

Structures from the list above that contain bromine, in the order listed:
Every second line gives: PINK1 expr mod	Six1-Eya2 inh	TRPML1 inh	D2 ag	D2 PAM	TRPML1 ag
COc1ccc(-c2[nH]ncc2/C=N/NC(=O)c2cc(Br)ccc2O)c(OC)c1
→ -0.7%	?	9	-6.0	-13	0.4
O=C(Nc1ncc(Br)s1)C1CCCN1S(=O)(=O)c1cccc2cccnc12 (stereo not given)
→ 7.5%	0	16	-5.1	-14	0.3
CCCC(=O)Nc1ccc(Cl)c(NC(=O)c2ccc(Br)o2)c1
→ -2.4%[38.3 µM]	-4	9	-1.5	-13	1.7
CN1C2C=C3C(C#N)=C(N)C(C#N)(C#N)C(c4ccc(Br)cc4)C3C1CC2 (stereo not given)
→ 8.9%	-11	5	-7.3	-19	0.1

Carrying on.
Every second line gives: PINK1 expr mod	Six1-Eya2 inh	TRPML1 inh	D2 ag	D2 PAM	TRPML1 ag
CC(c1ccccc1)N1CCn2c(nc3cc(NS(C)(=O)=O)ccc32)C1 (stereo not given)
→ -1.9%	9	-12	-2.2	-9	-0.2
COc1ccc(-c2nc3c(c(SCC(=O)Nc4ccc(C(=O)O)cc4)n2)Cc2ccccc2O3)cc1
→ 0.7%	nt	-26	nt	nt	1.0
Cc1ccn(C(=O)c2cc3c(C)nn(-c4ccccc4)c3s2)n1
→ 11%	15	45	0.7	-1	2.1
O=C(C=Cc1ccccc1)NCCNC(=O)C=Cc1ccccc1
→ -3.4%	-3	12	-0.2	-10	1.3
COc1ccc(OC)c(S(=O)(=O)NC(=O)C2(C)CCN2C(=O)Cc2ccc(Cl)cc2Cl)c1 (stereo not given)
→ 3.8%	6	nt	-4.5	-3	-0.1
